Menin MLL FP FL: qHTS Assay for Inhibitors Targeting the Menin-MLL Interaction in MLL Related Leukemias: Competition With Fluorescein Labeled MLL-derived Peptide | Fluorescence polarization, fluorescein-MLL peptide displacement from menin | 290,000 tested, under 10 active | FP activity change, % at 61.4 µM; inconclusive = falling polarisation curve, or a change in total fluorescence; inactive = total fluorescence flat and polarisation flat or rising; no compound was filed as active; the % refers to the polarisation; negative = inhibition;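 also: % of control where 0% means no effect; inhibitors lower the polarisation; unlabelled MLL peptide was the positive control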
Sfp inh: qHTS Assay for Inhibitors of Bacillus subtilis Sfp phosphopantetheinyl transferase (PPTase); 4'-phosphopantetheinyl transferase ffp (Bacillus subtilis), Q9F4F7; Biochemical Sfp PPTase activity, qHTS; Potency, µM, without a hit: max response, negative = inhibition, most hits filed as inhibitors; hit rate 3.5% among 310,000; AID 1490, 2009; active = well fitted inhibition curve with a large enough effect; inconclusive = small, poorly fitted or top-dose-only effect, or another doubt; inactive = no such curve, though single readings can be large or run the other way;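 also: the enzyme is Sfp with the accession as filed and its product quenches rhodamine fluorescence; potency is read from the fitted curve at half-maximal effect; 0% = enzyme reaction without inhibitor and -100% = no enzyme wells; top concentration of the series not given in the record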
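Fluorescence-quenching assay: 15 nM Sfp-PPTase preincubated 15 min at room temperature with compound, then 5 uM rhodamine-CoA and 12.5 uM BHQ-2-labelled YbbR peptide added. Fluorescence (ex 525/em 598 nm) read at start and after 30 min; difference gives rate.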
* = called active by the depositor; ? = inconclusive; & = joins results of further samples; [ ] = remark or other dose. A portion of the library (hit frequency here may not be typical).

SMILES	Menin MLL FP FL	Sfp inh
COc1ncc2nc(-c3cc(F)cc(F)c3)c(=O)n(Cc3cccs3)c2n1	3.6	?
C=C(C)C(O)/C=C/c1ccccc1OC (centres undefined)	-3.3[11.7 µM]	18.3%
CCC1=C2CC[C@H]3C(=O)N(CC(=O)OC)C(=O)[C@H]3[C@H]2[C@@]2(Cc3ccccc3)C(=NCCOC)OC(=O)N2C1=O	-11.8	-3.2%
COc1ccc(Oc2ncc3nc(-c4cc(F)cc(F)c4)c(=O)n(C4CC4)c3n2)cc1	0.4	10.3%
CO[C@H]1C([C@@]2(C)O[C@@H]2CC=C(C)C)[C@]2(CC[C@H]1OC(=O)/C=C/C=C/C=C/C=C/C(=O)O)CO2 (some centres undefined)	?	39.8µM*
COc1cccc(-c2coc3ccc(Br)cc3c2=O)c1	?	-5.8%
Cc1noc(C)c1-c1cncnc1NC1CC1	-0.8	2.5%
CC(C)NC[C@H](O)c1ccc(NS(C)(=O)=O)cc1	?	1.5%&-3.6%
COc1ccc(C(=O)N2CCC3(CCCN(C(=O)NC(C)C)C3)CC2)cc1	-10.2	13.4%
CC[C@H](C)[C@H](NC(=O)[C@H](Cc1ccc(O)cc1)NC(=O)[C@@H]1CCCN1C(=O)[C@H](CCCCN)NC(=O)[C@@H](N)CCCCN)C(=O)N[C@@H](CC(C)C)C(=O)O	-2.6	-6.4%
O=S1(=O)C2CC3C=CC2(O3)C(O)C(Cc2ccccc2)N1Cc1cccc(F)c1 (centres undefined)	2.5	8.0%
COCC(=O)N1CCC[C@@]2(CCN(c3ncccn3)C2)C1	-11.9	1.7%
C[C@@]1(C(NC(=O)Cc2ccccc2)c2ccc(-c3ccccc3)cc2)C[C@H]1C1CCCCC1 (some centres undefined)	0.8	22.5%
C/C=C(/C)C(=O)O[C@H]1CC(C)=CC(=O)[C@@]2(C)CC[C@@](O)(C(C)C)[C@H]12	1.1	2.6%
CC(=O)Nc1ccc(C2NC(C(=O)O)CCC2C)cc1 (centres undefined)	1.1[11.7 µM]	29.3%
COc1ccc(C2CC(=O)c3ccc(OC)cc3O2)cc1 (centres undefined)	-2.1	11.8%
O=C(CCN1CCCCC1)Nc1ccc2c(c1)C(=O)c1ccc(NC(=O)CCN3CCCCC3)cc1C2=O	-1.9	18.3%
O=S(=O)(c1ccccc1)N1CCC2(CCN(c3cccc(-c4ccccc4)c3)CC2)CC1	0.1	1.5%
Nc1ncnc2c1[nH]c(=O)n2C1CC(O)C(CO)O1 (centres undefined)	5.2	6.7%
Cc1noc(C)c1-c1ccc2ncnc(NCc3cccc(C(F)(F)F)c3)c2c1	0.5	7.1%
O=C(O)c1ccccc1-c1oc2cc(O)ccc2c(=O)c1Oc1ccccc1	-3.6	-2.0%
CC(=O)Nc1ccn(C2OC(C(COC(C)=O)NC(=O)C(CCCCNC(=O)OCc3ccccc3)NC(=O)OC(C)(C)C)C(OC(C)=O)C2OC(C)=O)c(=O)n1 (centres undefined)	1.6	-3.5%
Cc1ccc(-c2c(C3C4C=CCC(C)C4C(=O)N3Cc3ccccc3)ccc3ccccc23)cc1 (centres undefined)	-2.7	5.8%
COc1ccc(C2/C=C\CN([S+](=O)([O-])c3ccc4ccccc4c3)C(C)C(=O)N2Cc2ccc(F)cc2)cc1 (centres undefined)	-0.5	3.0%
O=C(O)Cc1csc(-c2ccc(Cl)cc2)n1	-3.9	6.7%
COc1ccc(-n2c(=O)c(CCc3ccccc3)nc3cnc(N4CCN(C)CC4)nc32)cc1	-1.7	-2.3%
O=S(=O)(c1ccccc1)N1CCC2(CC1)CN(c1ccncc1)C2	1.2	-1.5%
CO/N=C(\C(=O)N[C@@H]1C(=O)N2C(C(=O)[O-])=C(C[N+]3(C)CCCC3)CS[C@@H]12)c1csc(N)n1	2.6[24.8 µM]	-23.2%
COc1ccccc1CCn1c(=O)cnc2cncnc21	6.2	14.7%
O=C(c1ccncc1)N1CCC2(CCN(Cc3nccs3)CC2)CC1	0.0	2.1%
OCCC(O)CO (centres undefined)	-4.8&5.4&2.3	9.5%&-0.5%&-3.0%
CC(C)C[C@@H](CC(=O)N[C@@H](CCC(=O)O)CC(=O)O)NC(=O)[C@@H]1CCCC[C@H]1NC(=O)C[C@@H](NC(=O)C[C@H](Cc1c[nH]c2ccccc12)NC(=O)[C@@H]1CCCC[C@H]1N)C(C)C	-10.4	-18.7%
COCC(=O)N1CCC2(CC1)CCN(c1ccccc1)CC2	-9.7	7.1%
Cc1nc(NCCO)c2nc(-c3ccccc3)n(CCN(C)C)c2n1	-0.5	6.1%
CN1CCN(c2nc(-c3ccoc3)nc3ccccc23)CC1	-4.9	9.0%
C=CCOC(=O)C(C(C)=O)C(NC(=O)OC)c1cccc(C)c1 (centres undefined)	0.7[11.7 µM]	8.0%
Cc1noc(C)c1-c1ccc2ncnc(NC3CCCc4ccccc43)c2c1 (centres undefined)	-6.8	-13.5%
CC(=O)Nc1ccn(C2OC(C(COC(C)=O)NC(=O)C(Cc3ccccc3)NC(=O)OC(C)(C)C)C(OC(C)=O)C2OC(C)=O)c(=O)n1 (centres undefined)	-1.9	7.4%
COc1ccc2c(c1)C(=O)[C@H](OC(=O)N[C@H](C)C1CCCCC1)[C@@H](c1ccc(OC)c(Br)c1)O2	-0.3	0.0%
COC(=O)c1ccc(C(NC(=O)OCc2ccccc2)/C(F)=C/[C@@H](C)C(=O)NCc2cccnc2)cc1 (some centres undefined)	-0.8	12.8%
Cc1cn(C2CC3OCC(NC(=O)C4CCCN4C(=O)OC(C)(C)C)C3O2)c(=O)[nH]c1=O (centres undefined)	1.3	25.5%
CCNc1ncc2nc(-c3ccc(OC)cc3)c(=O)n(Cc3cccs3)c2n1	?	-7.8%
Cc1ccc2c(=O)c3ccccc3n(CCCN)c2c1C	-22.7&1.8	-13.5%&3.6%
COCCn1c(C(=O)N2CCCC2)cc2c1C[C@H]1CN(C(=O)c3ccccc3)[C@@](Cc3ccccc3)(C(=O)OC)[C@@H]21	-3.7	14.0%
COc1ccccc1CNc1ncncc1-c1ccc(C(=O)N(C)C)cc1	0.2	-15.5%
C=C1CCN(C(C)C(=O)OCc2cccc(C)c2)S(=O)(=O)c2ccccc21 (centres undefined)	0.3	-0.3%
CN=C(N)NCCCC(N)C(=O)O (centres undefined)	3.2	-7.2%
C[N+]1(CCCCC[N+]2(C)CCCC2)CCCC1	6.4	2.8%&22.3%
COc1ccc(-c2nc3cnc(N(C)C)nc3n(Cc3ccc(F)cc3)c2=O)cc1	-1.6	-0.2%
Cc1cnc(CNc2ncncc2-c2cccc(NS(C)(=O)=O)c2)cn1	-2.5	-5.1%
CNc1nc(-c2ccccc2Cl)nc2ccccc12	-3.1	-13.0%
CCC1CC=CC2C1C(=O)N(Cc1ccccc1)C2c1ccc(C(F)(F)F)cc1 (centres undefined)	-6.5	10.8%
C[C@@H]1C(=O)N(S(=O)(=O)c2ccc([N+](=O)[O-])cc2)[C@H]1c1ccc(F)cc1	0.3	21.8%
Nc1ccc(C(=O)Oc2ccccc2)c(O)c1	-1.7	11.7%
Cc1ncc(COP(=O)(O)O)c(CN)c1O	-6.3	0.7%
CCCn1c(-c2ccc(F)cc2)nc2c(NCCN3CCCC3)nc(C)nc21	0.1	7.7%
CC(C)CC(NC(=O)NC(CCC(=O)O)C(=O)O)C(=O)O (centres undefined)	-0.2	-4.9%
O=C(NCCCCN1CCOCC1)c1cc2ccccc2o1	4.6	4.3%
CCCCC#Cc1nc(NC)c2ncn([C@@H]3O[C@@H](CO)[C@H](O)[C@H]3O)c2n1	-1.6	16.0%
CS(=O)(=O)Nc1cccc(-c2cncnc2NCc2cccnc2)c1	-0.6	-5.7%

With a hit mark in Sfp inh, of those listed so far:
SMILES	Menin MLL FP FL	Sfp inh
CO[C@H]1C([C@@]2(C)O[C@@H]2CC=C(C)C)[C@]2(CC[C@H]1OC(=O)/C=C/C=C/C=C/C=C/C(=O)O)CO2 (some centres undefined)	?	39.8µM*

The list goes on:
SMILES	Menin MLL FP FL	Sfp inh
CC(C)(C)C(=O)OCOP(=O)(OCOC(=O)C(C)(C)C)C(C)(Oc1ccc(O)cc1)P(=O)(OCOC(=O)C(C)(C)C)OCOC(=O)C(C)(C)C	2.6	?
CC12C=C(/C=C/c3ccc(Br)cc3)C(C)(C1)[C@H](c1ccc(Br)cc1)CC2=O (some centres undefined)	0.7	-8.1%
COc1cccc([C@@H]2Oc3ccc(OC)cc3C[C@H]2O)c1	-2.8	17.5%
C=C(C(C)=O)C(O)c1ccc(C(F)(F)F)cc1 (centres undefined)	-1.7	-22.8%
Cc1cccc(CNc2cc(-c3cccnc3)ncn2)c1	-1.9	-5.5%
CO[C@H]1COC(=O)[C@H](Cc2ccccc2)NC(=O)C/C=C\[C@@H](C)[C@H](OC)COC(=O)C/C=C\[C@@H]1C	4.2[11.7 µM]	-0.2%
CC(C)=CCCC(C)C1CC[C@@]2(C)C3=C(CC[C@@]12C)C1(C)CCC(O)C(C)(C)C1CC3 (some centres undefined)	-2.7	-1.6%
CN1CCN(c2ncc3nc(-c4cccs4)c(=O)n(CCc4ccccc4)c3n2)CC1	?	-26.1%
CCCCCCCCCCCCCCCC(=O)N[C@@H](COP(=O)(O)O)C(=O)O	-0.3&-4.6	-9.4%&7.0%&9.3%
O=S(=O)(c1ccccc1)N1CCC2(CCN(Cc3ccccc3)CC2)CC1	-5.2	11.4%
CC(C)=C1C(=O)C(c2ccccc2)=C2CN3C(=O)N(CCc4ccccc4)C(=O)[C@]3(Cc3ccc(C(F)(F)F)cc3)[C@H]21	5.3	31.9%[activator]
CCOC(=O)OC(C)OC1=C(C(=O)Nc2ccccn2)N(C)S(=O)(=O)c2ccccc21 (centres undefined)	-0.7	-4.2%
C[C@@H]1Nc2ccc(Cl)cc2S(=O)(=O)N1	-9.9	-22.5%
CO[C@@H](CCO)C[C@H]1O[C@H](C(=O)OC(C)C)CC[C@@H]1C	-1.0	?
CNc1ncncc1-c1ccccc1C(F)(F)F	1.5	?
Cc1ncc(C[n+]2csc(CCOP(=O)(O)O)c2C)c(N)n1	-6.8	13.9%
CC#CCN1c2ccccc2[C@]23C[C@@H](C(=O)OC)N(S(=O)(=O)c4cccs4)C2=NC(C(=O)OC)=C(C(=O)OC)[C@H]13	0.2[11.7 µM]	-5.2%
CN1CCC(=O)N(C(CSc2ccc(Br)cc2)c2ccccc2)CC1 (centres undefined)	0.5	0.0%
N#CCCn1c(=O)c(-c2cccc(C#N)c2)nc2cnc(N3CCOCC3)nc21	3.2	28.8%
COC(=O)[C@@H]1C[C@H]1[C@@H](NS(=O)(=O)c1ccc(-c2ccccc2)cc1)c1ccccc1	-2.9	16.5%

Record cards, from the list above:
CN1CCC(=O)N(C(CSc2ccc(Br)cc2)c2ccccc2)CC1 (centres undefined) is entered as Menin MLL FP FL = 0.5; Sfp inh = 0.0%
N#CCCn1c(=O)c(-c2cccc(C#N)c2)nc2cnc(N3CCOCC3)nc21 is entered as Menin MLL FP FL = 3.2; Sfp inh = 28.8%
Cc1ncc(C[n+]2csc(CCOP(=O)(O)O)c2C)c(N)n1 is entered as Menin MLL FP FL = -6.8; Sfp inh = 13.9%

(continued)
SMILES	Menin MLL FP FL	Sfp inh
C[N+](C)(C)CCOP(=O)([O-])OP(=O)(O)OCC1OC(n2ccc(N)nc2=O)C(O)C1O (centres undefined)	2.9	10.8%
CC[C@H](C)[C@H](NC(=O)[C@@H]1CCCN1C(=O)[C@H](C)NC(=O)[C@H](CC(N)=O)NC(=O)[C@@H]1CCCN1C(=O)[C@@H]1CCCN1C(=O)[C@H](CCCN=C(N)N)NC(=O)[C@H](Cc1ccc(O)cc1)NC(=O)[C@H](C)NC(=O)[C@@H]1CCCN1C(=O)[C@@H]1CCCN1C(=O)[C@@H](N)[C@@H](C)O)C(=O)N[C@@H](CC(C)C)C(=O)O	-5.5	-9.8%
O=C(OC[C@@H](O)CO)c1ccccc1Nc1ccnc2cc(Cl)ccc12	0.0[24.8 µM]	19.9%
C=CCOC(=O)N[C@@H](Cc1ccccc1)/C(C(=O)OC)=C(\C)NCc1ccccc1	7.7	-28.7%
COc1ccc(C#CC2C=CC(OC(C)=O)C(COC(C)=O)O2)cc1 (centres undefined)	0.9&-0.8[11.7 µM]	15.4%&-5.3%
CC(=O)OC1C=C[C@]2(C)C(CC(OC(C)=O)[C@@]3(C)C4=CC(=O)OC(c5ccoc5)[C@]4(C)CCC23)C1(C)C (some centres undefined)	-3.4	-17.9%
CC(C)(N)C(=O)N[C@@H](Cc1cnc[nH]1)C(=O)N[C@H](Cc1ccc2ccccc2c1)C(=O)N[C@H](Cc1ccccc1)C(=O)N[C@@H](CCCCN)C(N)=O	-1.9	0.9%
COCCn1c(=O)c(-c2cn(C)c3ccccc23)nc2cnc(Oc3ccccc3)nc21	?	20.3%
COc1ccccc1N1CCN(CCCCN2C(=O)CCC2=O)CC1	?	-10.6%&7.8%
COC(=O)[C@@]1(Cc2ccc(OC)cc2)[C@H]2c3cc(C(=O)N4CCCC4)n(Cc4ccc(C(F)(F)F)nc4)c3C[C@H]2CN1C(=O)c1ccccc1	2.7	15.9%
